Source: PubChem BioAssay (several laboratories)
UCH37 DUB inh – inhibitors of human deubiquitinating enzyme UCH37; Q9Y5K5; purified proteasome/UCH37, Ub-AMC cleavage fluorescence; inhibition, % (concentration not given with the values); 330,000 tested, 0.33% active; AID 588478;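 active = mean of two replicates above 20%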;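 also: 0% = compound-free wells with enzyme and 100% = wells lacking proteasome; stock transfer was 100 nL into about 20 µL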
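System: Proteasome-associated human UCH37 deubiquitinase; Input: 0.15 nM proteasome in added enzyme buffer; Also added: Ub-AMC substrate from 1 µM stock; Incubation: 30 min compound-proteasome preincubation then 25 min substrate reaction, room temperature; Detection: fluorescence, ex 355 nm, em 460 nm; Read-out: % inhibition of Ub-AMC cleavage fluorescence; Benchmarks: no-proteasome and no-compound wells.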
HNF4A DNA FP – change in binding of human HNF4 alpha to DNA; HNF4a-FITC DNA binding, fluorescence polarization, 1 h; activity change, % at 10 µM; 360,000 tested, 0.3% active; AID 1224865; in the data active = activity change above about 30%, passing the limit was not always enough;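 also: controls were the assay level and a saturating level of protein; the project sought stronger binding though the title names inhibitors; some compounds called inactive have numbers as strong as hits; positive values seem to mean higher polarization but the record does not say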
ALR H2O2 inh – inhibitors of human sulfhydryl oxidase ALR | P55789 | purified ALR, DTT oxidation, H2O2 HRP-luminol luminescence | inhibition, % (no concentration beside the values) | 290,000 tested, 3.8% active | AID 485317;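 active = mean and each replicate at 75% or more; inconclusive = only one of the two met; inactive = neither met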;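 also: stock transfer was 7.5 nL into about 7.5 µL; 0% = neutral wells and 100% = wells with inactivated enzyme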
Target sequence (P55789 whole entry, looked up): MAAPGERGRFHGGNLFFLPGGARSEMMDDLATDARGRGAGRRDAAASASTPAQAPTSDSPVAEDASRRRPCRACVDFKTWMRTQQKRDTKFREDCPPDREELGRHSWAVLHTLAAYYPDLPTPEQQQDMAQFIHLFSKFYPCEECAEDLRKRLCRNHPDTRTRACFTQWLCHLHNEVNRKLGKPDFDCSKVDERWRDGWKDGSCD
E coli growth – inhibitors of Escherichia coli growth. OD600, 23 h; hits give low values. OD600 absorbance (no concentration beside the values). 330,000 tested, 0.21% active;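 active = OD600 absorbance below the run mean of sample wells minus 3.6 SD, in any replicate, cut at about 0.56 in these data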;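 also: stock transfer was 300 nL into about 60 µL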
Beta2AR agonist – agonists of human beta-2 adrenergic receptor inducing internalization; response, % (concentration not given with the values); 340,000 tested, 0.43% active; AID 504454; Am2.2-beta2AR cells, FAP receptor internalization, flow cytometry; reference of the scale not given here; P07550;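 active = response above a set limit, near 3 SD of response in nonfluorescent compounds, cut at about 42% in these data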;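 also: stock transfer was 100 nL into about 11 µL; a reference agonist was the positive control; negative values mostly stem from fluorescent compounds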
Target sequence (P07550 whole entry, looked up): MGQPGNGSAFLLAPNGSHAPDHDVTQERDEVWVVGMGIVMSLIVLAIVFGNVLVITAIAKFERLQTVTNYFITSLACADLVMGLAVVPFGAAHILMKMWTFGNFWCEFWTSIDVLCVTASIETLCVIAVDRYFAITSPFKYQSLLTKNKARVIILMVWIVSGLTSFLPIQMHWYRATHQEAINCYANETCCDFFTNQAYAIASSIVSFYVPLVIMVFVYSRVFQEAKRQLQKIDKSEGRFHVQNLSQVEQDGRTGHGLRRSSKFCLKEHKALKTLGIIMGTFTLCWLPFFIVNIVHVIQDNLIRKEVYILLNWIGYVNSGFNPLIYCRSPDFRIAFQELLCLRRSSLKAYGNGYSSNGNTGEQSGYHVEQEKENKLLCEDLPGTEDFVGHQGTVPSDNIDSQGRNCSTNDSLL
LANA-H2B inh – blocks KSHV LANA binding to histone H2A/H2B; Q9QR71; cell-free LANA-H2A/H2B peptide, fluorescence polarization; inhibition, % (no concentration beside the values); 320,000 tested, 0.6% active; AID 2629; in the data active = inhibition mostly above about 10%, no sharp cut-off; inactive = mostly below about 6.7%;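 also: stock transfer was 7.5 nL into about 10 µL; 0% = median of vehicle wells and 100% = median of positive control wells; one replicate is shown; the record names a cut of 25% in any replicate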
FGF22 binding – shifts melting point of recombinant human FGF22 | Q9HCT0 | recombinant FGF22 thermal shift, SYPRO orange fluorescence; percent of sucrose octasulfate shift, DMSO zero | calls only at 9.99 µM | 340,000 tested, 1.5% active | AID 651658;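 active = melting point raised past a set limit in the mean and every replicate; inconclusive = no clear call; three in four hits are not shown here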
Target sequence (Q9HCT0 whole entry, looked up): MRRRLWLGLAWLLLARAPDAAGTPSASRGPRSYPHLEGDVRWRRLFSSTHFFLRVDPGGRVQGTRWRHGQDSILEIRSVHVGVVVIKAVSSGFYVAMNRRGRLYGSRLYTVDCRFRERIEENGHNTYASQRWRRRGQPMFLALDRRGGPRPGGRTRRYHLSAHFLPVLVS
* marks the source's active call; other numbers are inactive results; i = inactive; ? = inconclusive; nt = not tested or not shown; + = active, no number.

The first 2 entries, ahead of the listing:
SMILES	UCH37 DUB inh	HNF4A DNA FP	ALR H2O2 inh	E coli growth	Beta2AR agonist	LANA-H2B inh	FGF22 binding
COc1cc(C(=O)COC(=O)c2ccc([N+](=O)[O-])o2)cc(OC)c1OC	5.6	5.6	-46	0.67	-2	-1.2	i
NC(N)=NC(N)=Nc1ccc(O)cc1	1.2	2.7	?	0.69	-7	-3.5	i

This part in full, from the first entry:
SMILES	UCH37 DUB inh	HNF4A DNA FP	ALR H2O2 inh	E coli growth	Beta2AR agonist	LANA-H2B inh	FGF22 binding
COc1cc(C(=O)COC(=O)c2ccc([N+](=O)[O-])o2)cc(OC)c1OC	5.6	5.6	-46	0.67	-2	-1.2	i
NC(N)=NC(N)=Nc1ccc(O)cc1	1.2	2.7	?	0.69	-7	-3.5	i
Cc1cc(NC(=O)Cc2ccccc2C)no1	2.9	-3.9	-7	0.65	-269	3.3	i
Clc1ccc(Sc2cc(Cl)c(-c3ccccc3)nn2)cc1	6.8	3.1	nt	0.73	4	-1.4	nt
CC(C)(C)c1ccc(OCCC(=O)Nc2cccc(S(=O)(=O)NC3=NCCCCC3)c2)cc1	3.6	-1.8	nt	0.64	4	nt	i
COc1cc(Cl)c(C)cc1NC(=O)c1ccc(NS(=O)(=O)c2ccc(F)c(F)c2)cc1	-70	4.0	-2	0.69	11	-3.1	i
CSc1ncccc1C(=O)N1CCN(S(=O)(=O)c2ccccc2)CC1	0.3	-1.3	nt	0.67	6	-1.1	i
O=C(NC1CC2CCCC(C1)N2Cc1ccccc1)c1cccc(F)c1 (stereo unspecified)	1.2	-0.1	-11	0.64	-1	-1.0	i
CCOC(=O)COc1ccc2c(c1)c(C(C)=O)c(C)n2-c1ccc(OC)cc1	4.2	4.8	-2	0.66	-5	5.5	i
CCN(CC)c1ccc(N=C2C(=O)Nc3ccccc32)cc1	nt	2.0	94*	nt	18	-8.0	i
C[C@@H]1CN([C@H](C)CO)C(=O)c2cccc(NC(=O)Nc3ccc(F)cc3)c2O[C@H]1CN(C)C(=O)Nc1ccc(C(F)(F)F)cc1	-0.4	3.8	-3	0.76	3	1.8	i
CCCCNc1cc(C)oc(=O)c1C(C)=O	6.0	-3.2	-11	0.64	8	1.0	nt
O=C1C2C3C=CC(C3)C2C(=O)N1CCN1CCN(S(=O)(=O)/C=C/c2ccccc2)CC1 (stereo unspecified)	3.9	1.7	-6	0.69	-5	-8.0	i
COc1ccc(N2CCN(C(=O)CSc3ncn[nH]3)CC2)cc1	3.2	2.2	99*	0.69	5	3.8	i
CCOc1ccc(S(=O)(=O)NCc2ccccc2)cc1C(N)=O	-2.4	1.0	-4	0.65	-3	0.7	i
Cc1cc(C)c(Cn2c(=O)n(CCCC(=O)NCc3ccco3)c(=O)c3ccccc32)c(C)c1	2.3	-1.8	1	0.8	-2	-1.4	nt
O=C(N/N=C/c1ccc(O)c(O)c1)c1ccc(-n2cnnn2)cc1	nt	-3.7	74	nt	-7	0.0	i
COc1ccccc1C(CNC(=O)c1ccc(NS(=O)(=O)c2ccc(C(C)=O)cc2)cc1)N1CCCC1 (stereo unspecified)	3.6	1.1	nt	0.7	-4	nt	i
O=C(c1cc2ccccc2oc1=O)N1CCCC1	2.3	-2.4	-16	0.7	-6	3.9	nt
O=C(/C=C/c1cccc(Br)c1)N1CCN(c2cccc(C(F)(F)F)c2)CC1	1.8	0.6	-1	0.73	-3	-1.3	nt
C[N+]1([O-])[C@@H]2Cc3cc4c(cc3[C@@H]1Cc1cc3c(cc12)OCO3)OCO4 (stereo partly specified)	0.4	1.8	12	nt	-1	-2.6	i
CC1CCN(S(=O)(=O)c2ccc(C(=O)NCc3ccc4c(c3)OCO4)cc2)CC1	0.7	-1.3	nt	0.7	11	-2.9	i
CCC1CCCCN1C(=S)NC(=O)c1ccco1 (stereo unspecified)	1.1	-4.6	nt	0.69	-1	-3.9	i
CN1CCN(NC(=O)c2ccccc2F)CC1	4.8	1.7	5	0.74	-10	0.2	nt
COc1ccc(C(=O)c2oc3ccccc3c2N)cc1	-11	-0.8	8	0.65	-7	1.8	nt
CCCCc1nc(C(N)=O)c2[nH]c(=O)n(-c3ccc(OCC)cc3)c2n1	-0.2	0.9	2	0.71	-9	3.4	nt
Cc1ccccc1CC(=O)OCC(=O)Nc1ccc(C)c(S(=O)(=O)N2CCCCC2)c1	2.8	2.3	-6	0.71	3	2.2	i
CCOc1ccc(C(=O)NC(=S)N(Cc2ccccc2)Cc2ccccc2)cc1	5.0	3.8	-24	0.76	1	2.1	i
O=C(NC(NC(=S)Nc1c(Cl)cccc1Cl)C(Cl)(Cl)Cl)c1cccc([N+](=O)[O-])c1 (stereo unspecified)	0.3	-3.6	-37	0.66	23	0.7	nt
Cc1ccc(OCC(=O)Nc2ccccc2Sc2ccccc2)c([N+](=O)[O-])n1	0.1	-1.7	-1	0.66	11	4.3	i
O=C(NCc1nc2ccccc2[nH]1)C1=C[C@H](c2ccc3c(c2)OCO3)C[C@H](OCc2ccc(CO)cc2)O1	5.3	0.8	-14	nt	-4	-1.3	i
Cc1ccc(-c2[nH]c(=S)[nH]c(=O)c2C#N)cc1	14	0.8	17	0.67	-1	3.4	nt
CSc1cccc(NC(=O)C2CCN(S(=O)(=O)c3ccc(F)cc3)CC2)c1	3.7	-0.8	-9	0.67	10	-4.8	nt
COCCNC(=O)C(c1ccc(C)cc1)N(C(=O)CCC(=O)Nc1ccccn1)c1cccc(C)c1 (stereo unspecified)	0.3	6.4	-1	0.64	-6	4.8	nt
CCN(CC)CCn1c(N)c(S(=O)(=O)c2ccccc2)c2nc3ccccc3nc21	i	13	4	0.66	3	-2.2	i
CCOc1ccc(S(=O)(=O)NCc2ccncc2)cc1NC(=O)c1ccccc1F	-30	0.9	nt	0.64	-6	-3.7	i
CC(=O)N1CCc2c(sc(NC(=O)CS(=O)(=O)c3ccc(F)cc3)c2C#N)C1	1.4	2.0	nt	0.69	-2	nt	i
O=C(CC1OC(=O)c2ccccc21)c1ccco1 (stereo unspecified)	3.0	1.9	-1	0.65	1	1.3	nt
Cc1occc1-c1nnc(SCCNCCO)o1	6.1	4.4	57	0.7	0	3.5	i
CCN(CC(=O)Nc1c(F)cccc1F)C(=O)c1cn2ccccc2n1	-1.0	2.7	-29	0.64	3	3.2	i
COc1ccccc1NC(=O)c1ccc2c(c1)N(CC(=O)NC(C)C)C(=O)C(C)(C)O2	2.3	-5.4	nt	0.7	2	-1.7	i
O=C(NCc1ccccc1)C1(C(F)(F)F)C/C(=C\CCO)CCCO1 (stereo unspecified)	1.8	-1.9	8	nt	1	-0.2	i
CCn1c(COc2ccccc2)nnc1SCC(=O)CC(=O)Nc1ccccc1OC	1.4	-1.3	3	0.72	1	0.2	nt
CCOc1ccc(-c2nc(N)ncc2-c2ccccc2)c(O)c1	4.6	-2.6	13	0.68	-16	-1.0	nt
Cc1ccc(-n2c(N)c(C#N)c(-c3ccccc3)c(C#N)c2=O)cc1	-110	2.0	2	0.76	8	-2.5	nt
NC(=O)c1cc(S(=O)(=O)N2CCCC2)ccc1OCCOc1ccccc1F	-0.3	-3.4	nt	0.69	-2	nt	i
Cc1cc(C(=O)NN)c(Cl)cc1Cl	3.8	3.4	2	0.68	1	-1.5	i
Cc1cc(=O)oc2cc(OCC(=O)N3CCC(O)CC3)c(Cl)cc12	-16	-0.9	0	0.7	-1	6.8	i
Cc1c(C(=O)N2CCCCC2)sc(NC(=O)c2ccco2)c1C#N	5.6	-0.9	6	0.71	8	1.7	nt
CC(NC(=O)COC(=O)Cc1cccs1)c1ccc(F)cc1 (stereo unspecified)	0.2	2.7	nt	0.68	-4	nt	nt

The results go on.
SMILES	UCH37 DUB inh	HNF4A DNA FP	ALR H2O2 inh	E coli growth	Beta2AR agonist	LANA-H2B inh	FGF22 binding
CCOc1ccccc1NC(=O)C(=O)CC(=O)c1ccc(OC)cc1	2.6	2.3	0	0.63	2	2.8	i
C/C(=N\NC(=S)NCc1ccccc1)c1cccc(Br)c1	nt	-3.3	nt	nt	2	5.9	nt
Cc1ccc(Cn2c(N3CCNCC3)nc3c2c(=O)[nH]c(=O)n3C)cc1	1.2	0.6	-1	0.65	6	-0.5	i
CCOc1ccc(N2CC(C(=O)N3CC(C)OC(C)C3)CC2=O)cc1 (stereo unspecified)	-0.6	-1.1	1	0.67	10	-2.2	i
Cc1cc(C)cc(NS(=O)(=O)c2c(C(=O)N3CCOCC3)c(C)n(C)c2C)c1	0.3	-0.8	0	0.7	1	1.5	i
COc1ccc(NC(=O)COC(=O)c2cc(OC)c(OC)cc2NC(=O)c2ccco2)cc1OC	-47	-1.8	-14	0.64	9	2.1	nt
Cc1noc(C)c1S(=O)(=O)N1CCCC(C(=O)c2cccc(OC(C)C)c2)C1 (stereo unspecified)	5.2	1.5	-2	0.7	0	-4.9	i
Cn1c(SCCN2CCCCC2)nnc1-c1ccccc1Br	3.1	-0.5	-4	0.72	-2	2.6	nt
CCOC(=O)[C@H]1[C@H]2COc3ccc(Br)cc3[C@@H]2N2C(=O)c3ccc(Cl)cc3NC(=O)[C@@]12C	3.2	-1.1	nt	nt	6	-5.9	i
O=C(COc1ccccc1[N+](=O)[O-])Nc1cccc(S(=O)(=O)N2CCCC2)c1	5.5	-2.8	2	0.73	15	1.5	i
Clc1cccc(-c2nc(-c3ccccn3)no2)c1	1.9	-1.0	4	0.69	-8	-2.2	nt
COC(=O)c1ccc2c(=O)[nH]c(COC(=O)c3c(-c4ccccc4)noc3C)nc2c1	-7.7	-0.9	-3	0.63	0	0.6	i
O=C(CSc1nnc(-c2ccncc2)n1Cc1ccccc1)NC1CCCCC1	1.4	2.9	nt	0.72	1	-8.5	i
COc1cccc(N2CCN(C(=O)CCC(=O)c3ccc(Cl)s3)CC2)c1	2.2	8.4	57	0.68	0	-1.4	i
N#C/C(=C(/O)COC(=O)CSc1ccc(Cl)cc1)c1nc2ccccc2[nH]1	3.4	0.1	8	0.68	20	-1.0	i
O=C(NCCS(=O)(=O)NC1CCCCC1)c1ccccc1	nt	0.8	-9	nt	0	-0.2	nt
Cc1ccccc1SC1CCN(Cc2nc(C3CC3)no2)CC1	1.0	-0.4	-22	0.72	4	-1.9	i
CC(=O)NC12CC3CC(C1)CC(C(=O)N1CCN(S(=O)(=O)c4cccc(C(F)(F)F)c4)CC1)(C3)C2	2.0	1.0	-7	0.69	7	5.7	i
COc1ccc(NC(C)C(=O)Nc2ccc(C(C)(C)C)cc2)cc1Cl (stereo unspecified)	2.4	0.7	-6	0.7	-1	0.9	nt
COc1ccc(C(=O)C2CCN(CC(=O)Nc3ccc(OC)cc3OC)CC2)cc1	1.2	4.0	nt	0.63	-2	19*	i
CC(=O)COc1nc2c(c(-c3ccco3)c1C#N)CCc1ccccc1-2	-155	nt	-24	0.69	nt	0.3	nt
C=CCNC(=O)/C(=C/c1ccco1)NC(=O)c1ccc(Br)o1	2.6	-1.7	2	0.77	3	2.6	nt
Nc1nonc1N/N=C\c1ccccc1	nt	3.0	nt	nt	-4	0.8	+
CC1=C(C(=O)OCc2ccccc2)C(c2ccccc2Cl)NC(=O)N1CCCCCC(=O)O (stereo unspecified)	7.2	4.5	nt	0.63	1	1.2	i
O=C(CCc1nnc(CCCCc2ccccc2)o1)NC1CCCC1	-1.7	-4.6	-14	0.7	1	0.7	i
COc1ccc(CCNS(=O)(=O)c2ccc(N3CCCC3=O)cc2)cc1	-1.4	0.8	7	0.76	5	3.9	nt
N#Cc1ccsc1NC(=O)CN1CCN(c2ccccc2O)CC1	0.8	4.6	99*	0.67	1	-0.6	nt

Not all compounds are listed. The share of hits here may be higher or lower than overall.
